Bm FixLJ act: increases Burkholderia fixLJ two-component signaling. B. multivorans fixK-promoter GFP reporter, 18 h; hits give high values. z-score (no concentration beside the values). hit rate 0.3% among 29,000;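 active = replicate mean overnight rise in green fluorescent reporter signal, 3 or more SD over negative controls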;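 also: score is relative to vehicle wells of the plate; 300 nL library stock went into each well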
* hit, by the source's call. These rows are one share of the data; the hit share may differ from the screen's.

cpd	mol	Bm FixLJ act
1	COc1ccc(NC(=O)Nc2cc(-c3cn4cccnc4n3)ccc2C)cc1	-2.4
2	Cc1ccccc1NC(=O)c1c(NC(=O)c2cccs2)sc2c1CCC(C)C2 (stereo unspecified)	-0.25
3	Cc1ccc2oc(-c3ccc(Cl)cc3)c(O)c(=O)c2c1	-0.82
4	N=c1n(CCO)c2ccccc2n1Cc1ccccc1F	-1.4
5	Cc1cc(C)cc(NC(=O)N2CCN(C)c3ncccc32)c1	0.23
6	O=C(N[C@H](CO)[C@H](O)c1ccc([N+](=O)[O-])cc1)C(Cl)Cl	-4.6
7	CCOc1ccc(CC(=O)N2CC(O)C(Cc3cnccn3)C2)cc1 (stereo unspecified)	-0.79
8	CCOC(=O)c1c(NC(=O)c2cc(-c3ccc(OC)cc3)on2)sc(C)c1C	-1.3
9	COc1ccc(Nc2cc(C(=O)NCCCN(C)C3CCCCC3)c3ccccc3n2)cc1	-1.1
10	COCCNC(=O)CCn1nc(-c2ccc(Cl)cc2)c2ccccc2c1=O	-0.37
11	Cc1ccc(C)c(NC(=O)Cn2c(=O)oc3cc(S(=O)(=O)NCc4ccccc4)ccc32)c1	-3.9
12	CCN(CC)CCn1c(-c2ccccc2)csc1=Nc1ccccc1	-2.2

cpd	mol	Bm FixLJ act
13	O=C(NCCN1CCCCC1)c1ccc(Cn2c(SCc3ccccc3)nc3cccnc32)cc1	0.85
14	O=C(CN1C(=O)COc2ccc(S(=O)(=O)N3CCOCC3)cc21)N1CCN(c2ccccc2F)CC1	-0.8
15	O=C(CCCCn1c(=O)c2ccccc2n(CC(=O)Nc2cccc(C(F)(F)F)c2)c1=O)NCc1ccc2c(c1)OCO2	-1.8
16	COc1cc(NC(=O)CCc2c(C)nc3c(c(C)nn3-c3ccccc3)c2C)cc(OC)c1OC	-0.64
17	COc1ccc2cc(C3CC(=O)Nc4c3cnn4Cc3ccncc3)ccc2c1 (stereo unspecified)	-0.8
18	Cc1ccc(NC(=O)N2CCc3cc(S(=O)(=O)N4CCC(C)CC4)ccc32)cc1F	-1.9
19	CCc1ccc2oc(-c3cc(NC(=O)c4cc(OC)c(OC)c(OC)c4)ccc3O)nc2c1	0.81
20	Cc1cc(C)c2c(CC(=O)Nc3ccc(S(=O)(=O)Nc4nc(C)cc(C)n4)cc3)coc2c1	-1.2
21	Cc1ccn2c(=O)c(C(=O)NCCCN3CCCCC3C)c(O)nc2c1 (stereo unspecified)	-0.37
22	CCOc1ccc(CCNC(=O)Cn2nc(CC)n3c(cc4ccccc43)c2=O)cc1	-0.73
23	O=C(NCc1noc(-c2cccs2)n1)c1ccccc1-n1cnnc1	-1.2
24	CCc1ccc(NC(=O)CSc2nc(C)cc(COC)c2C#N)cc1	0.76

cpd	mol	Bm FixLJ act
25	Cc1ccc(C)c(Nc2nnc(-c3ccc(C)c(S(=O)(=O)N4CCCCC4)c3)c3ccccc23)c1	-0.47
26	CCOC(=O)c1c(C)c(C(=O)NCCc2ccc(OC)cc2)c(C)n1CC	0.68
27	COc1ccc(S(=O)(=O)c2cn(Cc3ccccc3)c3ccc(OC)cc3c2=O)cc1	-0.43
28	CCCCOc1ccc(CNC(=O)C2CCN(c3nnc(-n4cccc4CNc4ccc(C)cc4)s3)CC2)cc1	-0.55
29	CSc1ccc(CCNC(=O)C(C)n2c(C)c3cnn(-c4ccccc4)c(=O)c3c2C)cc1 (stereo unspecified)	-1.1
30	Cc1nc(CN2CCC(NC(=O)Cc3ccccc3C)C(O)C2)cs1 (stereo unspecified)	-0.13
31	CCCCCn1cc2c(c1-c1ccc(Cl)cc1)c(=O)n(C)c(=O)n2C	0.25
32	CC1CCN(c2nc3ccc(C(=O)NC(C)C)cc3s2)CC1	-0.62
33	COc1cc(NC(=O)c2cccc3c2C(=O)N(C2CCCCC2)C3)cc(OC)c1OC	-0.49
34	CCNC(=O)c1cc(NC(=O)c2cnc(CC)nc2)ccc1Cl	-0.25
35	COc1ccccc1/C=C/c1nc(C#N)c(NC(C)c2ccccc2)o1 (stereo unspecified)	1.3
36	CCOC(=O)C(CC)n1nnc2sc(-c3ccccc3)cc2c1=O (stereo unspecified)	3.3

Already shown: entries from further up.
cpd	mol	Bm FixLJ act
34	CCNC(=O)c1cc(NC(=O)c2cnc(CC)nc2)ccc1Cl	-0.25
35	COc1ccccc1/C=C/c1nc(C#N)c(NC(C)c2ccccc2)o1 (stereo unspecified)	1.3
36	CCOC(=O)C(CC)n1nnc2sc(-c3ccccc3)cc2c1=O (stereo unspecified)	3.3

More structures follow:
cpd	mol	Bm FixLJ act
37	CN1CCC[C@]2(C(=O)O)CCN(C(=O)c3ccc4c(c3)CCCO4)C[C@H]12	0.02
38	Cc1cccc(N2C(=O)C(CC(=O)Nc3ccccc3)N(C3CCCCC3)C2=O)c1 (stereo unspecified)	-0.71
39	Cc1ccc(NC(=O)CCCN2C(=O)COc3ccc(C)cc32)c(Cl)c1	0.31
40	Cc1cccc(N2CCN(c3c4c(nc5nncn35)CCC4)CC2)c1C	-1.2
41	CN1CCCC2(CCN(c3cc(-c4ccccc4)nc4ccnn34)C2)C1=O (stereo unspecified)	-0.82
42	O=C(CCN1CCCC1c1nc2ccc(F)cc2[nH]1)Nc1nccs1 (stereo unspecified)	-0.01
43	Cc1ccc2occ(CC(=O)N(Cc3ccc(N(C)C)cc3)C3CCS(=O)(=O)C3)c2c1 (stereo unspecified)	-2
44	Cc1ccc(NC(=O)Cn2c(=O)n(Cc3ccco3)c(=O)c3sc4ccccc4c32)c(C)c1	-1
45	Cc1cc(-c2cccc(C(=O)NCCN3CCCCCC3)c2)nc(C)c1C#N	0.77
46	CCCOc1ccccc1C1C(C(=O)Nc2ccccc2)=C(C)Nc2nnnn21 (stereo unspecified)	-0.47
47	COc1ccc(NC(=O)Cn2cc(S(=O)(=O)N3CCC(C)CC3)c3ccccc3c2=O)cc1Cl	0.06
48	CC(CO)Nc1ccc(C(=O)N2CCC(CCc3ccccc3)CC2)cn1 (stereo unspecified)	-1.6

cpd	mol	Bm FixLJ act
49	Cc1nnc(N2CCN(c3ccccc3F)CC2)c2c1nnn2Cc1ccccc1Cl	-0.38
50	CCc1ccc(NC(=O)CN2C(=O)C(c3ccc(C)cc3)=NC23CCCCC3)cc1	-1.7
51	COc1ccccc1NC(=O)c1oc2ccccc2c1NC(=O)c1ccccc1C(F)(F)F	-4.3
52	COc1ccccc1-n1cc(C(=O)NC2CCCCCCC2O)cn1 (stereo unspecified)	0.01
53	Cn1nc(C(=O)O)c2c1CCN(C(=O)CSc1ccncc1)C2	-0.87
54	CCCN(Cc1ccc(Cl)cc1)C(=O)c1cnc(-c2cccnc2)[nH]c1=O	0.08
55	COc1cc2c(cc1NC(=O)COc1cc(C)ccc1C)oc1ccccc12	-1.1
56	CCn1nc(C)c(C(C)NC(=O)c2c(C)n(C)c3ccc(O)cc23)c1C (stereo unspecified)	-1
57	COc1ccccc1-c1nc2cc(NC(=O)c3ccccc3Cl)ccc2o1	1.4
58	Cc1cccc(N2CCN(C(=O)C3CCCN(C(=O)c4cc5sccc5n4C)C3)CC2)c1C (stereo unspecified)	-0.42
59	CCn1cc(CN(CCOC)C(=O)NCc2ccc(C)cc2C)cn1	-0.57
60	COc1ccc(C)cc1NC(=O)CN(c1cc(C(F)(F)F)ccc1Cl)S(C)(=O)=O	-1.8
61	CCn1cc(C(=O)NCCc2ccccc2)c(=O)c2cc(S(=O)(=O)N3CCOCC3)ccc21	0.04
62	Cc1cccc(OCCn2c(-c3ccc(Cl)cc3)nc3ccccc3c2=O)c1	-0.78

Compounds listed so far with a Cl atom (twelve):
cpd	mol	Bm FixLJ act
3	Cc1ccc2oc(-c3ccc(Cl)cc3)c(O)c(=O)c2c1	-0.82
6	O=C(N[C@H](CO)[C@H](O)c1ccc([N+](=O)[O-])cc1)C(Cl)Cl	-4.6
10	COCCNC(=O)CCn1nc(-c2ccc(Cl)cc2)c2ccccc2c1=O	-0.37
31	CCCCCn1cc2c(c1-c1ccc(Cl)cc1)c(=O)n(C)c(=O)n2C	0.25
34	CCNC(=O)c1cc(NC(=O)c2cnc(CC)nc2)ccc1Cl	-0.25
39	Cc1ccc(NC(=O)CCCN2C(=O)COc3ccc(C)cc32)c(Cl)c1	0.31
47	COc1ccc(NC(=O)Cn2cc(S(=O)(=O)N3CCC(C)CC3)c3ccccc3c2=O)cc1Cl	0.06
49	Cc1nnc(N2CCN(c3ccccc3F)CC2)c2c1nnn2Cc1ccccc1Cl	-0.38
54	CCCN(Cc1ccc(Cl)cc1)C(=O)c1cnc(-c2cccnc2)[nH]c1=O	0.08
57	COc1ccccc1-c1nc2cc(NC(=O)c3ccccc3Cl)ccc2o1	1.4
60	COc1ccc(C)cc1NC(=O)CN(c1cc(C(F)(F)F)ccc1Cl)S(C)(=O)=O	-1.8
62	Cc1cccc(OCCn2c(-c3ccc(Cl)cc3)nc3ccccc3c2=O)c1	-0.78

Source: PubChem
